AID504770 – E. coli YBA685 growth inhibition, screen for V. cholerae RctB inhibitors; E. coli YBA685 rctB-dependent plasmid, OD600 growth, 3 h; active compounds read low; z-score (concentration not given with the values); 130,000 tested, 0.27% active; AID 504770;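 active = z-score under -2 on both plates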;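 note: wells of about 30 µL received 100 nL stock; score is relative to mean and SD of the test wells; the first replicate is given; strong numbers were not always called active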
CapD inh – blocks the Bacillus anthracis CapD enzyme; purified CapD enzyme, fluorescence intensity read-out; active compounds read low; some hits fall short of the stated cut; z-score (no concentration beside the values); 140,000 tested, 0.23% active; AID 492967;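 active = z-score under -4 in either of two replicates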;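 note: stock transfer was 100 nL into about 40 µL; score is relative to mean and spread of the plate; one replicate is shown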
Active calls of the source: *; / = no result given.

SMILES	AID504770	CapD inh
Cc1nc(N2CCN(c3ccccn3)CC2)c2c(C)c(C(=O)N3CCN(c4ccc(F)cc4)CC3)sc2n1	/	0.23
CCCCC1CC1C(=O)Nc1ccccc1C#N (stereo not drawn)	1.9	/
COc1ccccc1N1CCN(C(=O)CSc2nc(NCC3CCCO3)c3ccccc3n2)CC1 (stereo not drawn)	/	0.44
c1ccc(Cn2ccc3ccccc32)cc1	-0.4	1.1
c1coc(C2=Nc3cccc4cccc(c34)N2)c1	-0.35	-2.8
NC(=O)c1cc(Br)c(O)c(Br)c1	0.8	0.44
Cc1onc(-c2ccccc2)c1N1C(=O)CCN(Cc2ccccc2)C1=O	-0.1	0.15
CCN(CC)C(=O)c1cc(-c2ccco2)nc2ccccc12	-0.15	101
Cc1cc(NC(=O)CSc2ncnc3sc(C)c(C)c23)n(-c2ccccc2)n1	-0.1	/
NCCCC(N)CC(=O)NC1CNC(=O)C(C2CC(O)N=C(N)N2)NC(=O)/C(=C/NC(N)=O)NC(=O)C(CO)NC(=O)C(CO)NC1=O (stereo not drawn)	/	0.53
CCCn1c(-c2ccc(N)cc2)nc2ccccc21	-0.45	100
COc1cc(C2=Nc3c(c(C)nn3-c3ccccc3)P(=O)(N3CCOCC3)O2)cc(OC)c1OC (stereo not drawn)	1.9	/
CC(C)(C)OC(=O)CSc1nc2ccccc2n1CCC#N	-0.45	/
Cc1ccc(C(=O)N2CCN(S(=O)(=O)c3ccc(F)cc3)CC2)s1	1.2	/
Cn1c2ccccc2c2nnc(SCc3ccc(F)cc3Cl)nc21	0.55	0.48
CCOC(=O)C1=C(N)OC2=C(C(=O)CC(c3ccccc3)C2)C1c1ccc(O)c(OC)c1 (stereo not drawn)	/	-0.46
O=C(CSC1CCCCC1)Nc1ccc(F)cc1	-0.35	0.085
COc1ccc(-n2c(SCC(=O)NCC3CCCO3)nc3c([nH]c4ccccc43)c2=O)cc1 (stereo not drawn)	0.2	1.6
Cn1c(=O)oc2cc(S(=O)(=O)NCCCN3CCN(c4ccccc4F)CC3)ccc21	2.6	-0.3
Fc1ccc(Nc2nc(NCCC3=CCCCC3)nc(N3CCOCC3)n2)cc1	/	0.47
O=C(O)C1CCCCC1C(=O)Nc1ccc2[nH]c(=S)sc2c1 (stereo not drawn)	1.2	-0.075
CSC1=NCCN1CC(=O)c1ccc(Cl)cc1	/	0.05
COc1ccc(-c2nc(N)n(C(C)=O)n2)cc1	-1.8	/
CCOC(=O)Cn1c(=O)oc2cc(S(=O)(=O)N(CC(C)C)CC(C)C)ccc21	1.4	-1.6
Cc1ccccc1-c1nnc(SCC(=O)c2ccccc2)o1	-0.4	/
CCOC(=O)C(CC)n1nc(C)n2c(cc3sccc32)c1=O (stereo not drawn)	0.75	-0.44
COC(=O)c1cc2ccccc2[nH]1	1.6	7.1
O=P(O)(Cc1ccccc1)c1ccccc1	-0.65	0.14
CN(C(=O)CSc1nc2ccccc2[nH]1)c1ccccc1	-1.1	-0.39
Cc1ccc(C)c(NC(=O)Cc2nc(CN3CCOCC3)cs2)c1	-0.4	/

Some values from the list:
AID504770, CC(C)(C)OC(=O)CSc1nc2ccccc2n1CCC#N is entered as -0.45
CapD inh, CSC1=NCCN1CC(=O)c1ccc(Cl)cc1 is entered as 0.05
AID504770, COc1cc(C2=Nc3c(c(C)nn3-c3ccccc3)P(=O)(N3CCOCC3)O2)cc(OC)c1OC (stereo not drawn) is entered as 1.9
AID504770, Cn1c(=O)oc2cc(S(=O)(=O)NCCCN3CCN(c4ccccc4F)CC3)ccc21 is entered as 2.6
AID504770, COc1ccc(-c2nc(N)n(C(C)=O)n2)cc1 is entered as -1.8
CapD inh, CCOC(=O)Cn1c(=O)oc2cc(S(=O)(=O)N(CC(C)C)CC(C)C)ccc21 is entered as -1.6
CapD inh, CCN(CC)C(=O)c1cc(-c2ccco2)nc2ccccc12 is entered as 101

Next section
SMILES	AID504770	CapD inh
CCOC(=O)C1=C(C)NC(=S)NC1c1ccccc1 (stereo not drawn)	/	-0.46
CCn1c(=O)c(=O)[nH]c2cc(C(=O)NCCCn3ccnc3)ccc21	-0.2	/
COc1ccc(N(C(=O)c2ccco2)C(C(=O)NC2CCCC2)c2cc(OC)c(OC)c(OC)c2)cc1 (stereo not drawn)	0.45	/
C=CCN(CC=C)CC(O)Cn1c2c(c3ccccc31)CCN(C)C2=O (stereo not drawn)	1.9	-0.025
CCOC(=O)c1sc2ncnc(N3CCN(c4ccc(OC)cc4)CC3)c2c1C	/	-0.57
COC(=O)c1ccc(CC(=O)c2c(C)cc(O)cc2O)o1	0.9	/
CC(C)(C)C(=O)Nc1ccc2c(c1)OCO2	2.3	-0.18
C[N+]1(C)C2CC(OC(=O)[C@@H](CO)c3ccccc3)CC1C1OC12 (stereo partly drawn)	-0.15	-0.01
COc1ccc(-n2nc3c(c2NC(=O)c2ccc(S(=O)(=O)N4CCOCC4)cc2)CS(=O)(=O)C3)cc1	/	0.12
CS(=O)(=O)N1CCN=C1SCc1cccnc1	-0.85	-0.49
O=C(CSc1nncn1-c1ccc(C(F)(F)F)cc1)c1ccc(F)cc1	-0.15	0.27
CCc1ccc(NC(=O)C(C)OC(=O)c2ccc(C#N)cc2)cc1 (stereo not drawn)	-0.5	1
CC(c1ccccc1)n1cnc2c1C(=O)c1ccccc1C2=O (stereo not drawn)	0.4	/
Cc1ccc2c(c1)-c1c(ssc1=S)C(C)(C)N2C(=O)c1ccc(C(F)(F)F)cc1	/	0.16
CCN1/C(=c2/sc(=C3C(=O)c4ccccc4C3=O)n(C)c2=O)C=Cc2ccccc21	/	-0.26
O=C1c2ccc([N+](=O)[O-])cc2C(=O)N1c1ccc(-c2nc3ccccc3s2)cc1	/	-0.055
Nn1c(SCC(=O)Nc2cccc(Br)c2)nnc1C1CC1	-0.85	/
O=C(c1ccc(F)cc1)c1oc2ccccc2c1NC(=O)C1COc2ccccc2O1 (stereo not drawn)	0.95	0.59
CCC(=O)Nc1cc(-c2nn(C)c(=O)c3ccccc23)ccc1OC	0.1	0.88
COc1ccc(CNC(=O)CN(C(=O)c2ccc(N3CCCC3)nc2)c2ccccc2C)cc1	-0.4	/
CC(OC(=O)C1=NNC(=O)CC1)C(=O)Nc1cccc(Cl)c1 (stereo not drawn)	0.25	/
O=C(O)CCC(=O)Nc1ccccc1-c1nnc(-c2ccc(Cl)cc2)o1	/	8.6
Cc1cnc(N)c2c(=O)oc3ccccc3c12	-0.2	87
CC(C)S(=O)(=O)c1csc(C(=O)O)c1N	/	1.6
O=C(Cc1ccc2c(c1)OCCO2)Nc1ccccc1C(=O)Nc1ccc2c(c1)OCO2	0.8	/
O=C(Nc1cccc(Cl)c1)Nc1nc(-c2ccc(OC(F)(F)F)cc2)no1	-0.8	10
Cc1cc(C)c2c(n1)sc1c(=O)oc(C)nc12	-0.95	0.065
CC1CN(CCCOc2ccc(C(C)(C)C)cc2)CC(C)O1 (stereo not drawn)	0.55	-0.1
O=C(O)c1ccccc1C(=O)Nc1cccc(O)c1	0	/
c1ccc2c(c1)CCN2c1ncnc2c1nc1n2CCCCC1	0.15	1
CCNC(=O)N(Cc1ccc(S(C)(=O)=O)cc1)C1CCN(Cc2ccccc2)CC1	/	-0.7
COc1ccc(-n2nc(C(=O)Oc3ccccc3)c3ccccc3c2=O)cc1	/	0.17
Cc1onc(-c2ccccc2)c1C1=N/C(=C\c2ccc(Br)cc2)C(=O)O1	/	-0.35
CCN1C(=O)/C(=C2/C=Cc3ccccc3N2CC)SC1=Nc1ccc(N2CCOCC2)cc1	-0.4	0.53
CCc1nn2c(=O)cc(COc3cccc(NC(=O)C45CC6CC(CC(C6)C4)C5)c3)nc2s1	-1	0.15
COc1cccc(C=C2C(=O)c3ccccc3C2=O)c1OC(C)C	0.2	0.49
COc1ccc(OC)c(S(=O)(=O)N2CCN(c3ncccn3)CC2)c1	-1.6	0.065
COc1ccc(NC=O)c2ncccc12	-0.1	0.18
COC(=O)c1sc(SC)c(C#N)c1-c1cccc(Cl)c1	-0.35	-0.065
O=S(=O)(c1ccccc1F)N1CCC(C(O)(c2ccccc2)c2ccccc2)CC1	/	0.52
Cc1nnsc1-c1noc(C)c1-c1nc(-c2cc(C(F)(F)F)cc(C(F)(F)F)c2)no1	-1.2	0.23
COC(=O)CNc1ccc(C)c(C)c1	-0.45	/
CN(CC(=O)Nc1cccc2ccccc12)Cc1nc2ccccc2c(=O)[nH]1	-0.55	/
Cc1nn(C(=O)c2ccc(Cl)cc2)c(C)c1Cc1c(F)cccc1Cl	/	0.28
CC(C)(C)c1cc(C(=O)Oc2cncc(Cl)c2)cc(C(=O)Oc2cncc(Cl)c2)c1	0.4	0.76

A different layout for 4 compounds above:
COc1ccc(NC=O)c2ncccc12
  AID504770: -0.1	CapD inh: 0.18

COC(=O)c1sc(SC)c(C#N)c1-c1cccc(Cl)c1
  AID504770: -0.35	CapD inh: -0.065

O=S(=O)(c1ccccc1F)N1CCC(C(O)(c2ccccc2)c2ccccc2)CC1
  AID504770: /	CapD inh: 0.52

Cc1nnsc1-c1noc(C)c1-c1nc(-c2cc(C(F)(F)F)cc(C(F)(F)F)c2)no1
  AID504770: -1.2	CapD inh: 0.23

(listing goes on)
SMILES	AID504770	CapD inh
O=C(NCCN1CCOCC1)c1nn2c(C(F)(F)F)cc(-c3ccc(Br)cc3)nc2c1Cl	/	0.51
Cc1cccc(-c2nc(CS(=O)CC(=O)NC(C)C)c(C)o2)c1 (stereo not drawn)	-0.7	-0.27
CC(C)OC(=O)C(C)Oc1ccc2c(=O)c(-c3ccccc3)coc2c1 (stereo not drawn)	-0.7	0.16
CCSc1nnc(NC(=O)/C=C/c2ccco2)s1	-0.5	/
N#C/C(=C\c1ccccc1N1CCOCC1)S(=O)(=O)c1ccccc1	0.15	-0.39
O=C(CCCCn1c(=O)c2ccccc2n(Cc2cccnc2)c1=O)NCc1ccc2c(c1)OCO2	-0.7	0.14
COc1ccccc1NC(=O)CSC(=O)c1ccccc1	0.1	0.43
O=C(NCC1OCCc2ccccc21)C1OCCc2ccccc21 (stereo not drawn)	0.1	-1.4
CC(C)NC(=O)CCSc1ccc(Cl)cc1	-0.85	/
CCc1ncc(C(O)c2ccc(OC)cc2)n1C (stereo not drawn)	0.05	-0.35
COc1cc(C(=O)O)c(NC(C)=O)c(OC)c1OC	/	0.21
Cc1nc(COc2ccc(C#N)cc2)cs1	/	-1.3
CC1=NN(c2ccccc2)C(=O)C1/C=C1\C(=O)NC(=O)N(c2ccc(Cl)cc2)C1=O (stereo not drawn)	/	0.085
COc1ccc(/C=C/C(=O)C2(C)CCCCC2)cc1	/	-0.45
Cc1cc(C)n(Cc2ccccc2)c(=O)c1S(=O)(=O)c1ccccc1	/	2.2
CC(C)NC(=O)NCc1c(F)cccc1Cl	-0.35	0.12
CCOC(=O)c1c(NC(=O)CN2C(=O)C3CC=C(Cl)CC3C2=O)sc2c1CCCCC2 (stereo not drawn)	/	-0.46
COc1ccc(CN(C)C(=O)C2CC(=O)N(C3CCCC3)C2)cc1F (stereo not drawn)	0.6	/
CC(C)n1cc(-c2noc(-c3ccccc3Cl)n2)c(=O)n(Cc2ccccc2)c1=O	-0.35	-0.01
Cc1nnc2c3ccccc3nc(Nc3cccc(C(F)(F)F)c3)n12	0.45	1.5
CCc1ccc(OCc2ccc(C(=O)OC)o2)cc1	-0.7	-0.58
COc1ccc(-c2nc(NC(C)=O)c3c(=O)oc4ccccc4c3n2)cc1OC	/	-0.06
C#CCNC(=O)c1cc2cnccc2nc1C	/	-0.51
O=C1Nc2ccc(Cl)cc2S/C1=C/Nc1cccc(C(F)(F)F)c1	/	-0.28
CCCc1cc(=O)oc2cc(OC(C)=O)cc(OC(C)=O)c12	-1.3	47
Cc1ccc(-c2nnn(CC(=O)N3CC(=O)Nc4ccccc43)n2)cc1	0.4	/
CCOC(=O)c1c(NC(=O)CC2SC(=NC)N(C)C2=O)sc(C)c1C (stereo not drawn)	/	-0.73
CCCN1CCC(NCCc2ccc(Cl)cc2)CC1	0	-0.15
CCOC(=O)C1=C(C)NC(=O)NC1c1ccc(OS(=O)(=O)c2ccc(C)cc2)cc1 (stereo not drawn)	/	0.3
S=c1[nH]nc(Cc2cccc3ccccc23)n1/N=C/c1ccco1	0.75	/

Compound profiles, from the list above. Screens in order: AID504770, CapD inh
`COc1ccc(-c2nc(NC(C)=O)c3c(=O)oc4ccccc4c3n2)cc1OC` across the screens: /, -0.06
`CC(C)NC(=O)NCc1c(F)cccc1Cl` across the screens: -0.35, 0.12

Continued.
SMILES	AID504770	CapD inh
CC1(C)Cc2ccccc2C(N2CCOCC2)=N1	0.15	0.11
Cc1nnc(COc2ccc3ccccc3c2Br)o1	0.75	/
O=c1oc2ccccc2cc1-c1csc(Nc2ccc(Oc3ccc4ccccc4c3Cl)c(Cl)c2)n1	/	0.19
COc1ccc2nc(C)c(C(=O)OCCN(C)C)cc2c1	-0.15	22
COc1ccc2c(c1)C(=O)CC(c1ccc3c(c1)OCCO3)O2 (stereo not drawn)	-0.3	/
COc1ccc(CCN=C=S)cc1	-1.5	/
Cc1ccc(C(O)CCC(=O)O)cc1 (stereo not drawn)	-0.15	/
Oc1c(C=Nc2ccc(Cl)cc2)[nH]c2ccccc12	0.75	-0.85
Cc1cc(C(=O)CS(=O)c2ccc(F)cc2)cc(C)c1OC(=O)N(C)C (stereo not drawn)	/	-0.035
O=S(=O)(Nc1cccc(CCc2ccccn2)c1)c1cc(Cl)ccc1Cl	/	-0.68
Cc1ccc2[nH]c3c(c2c1)CCCC3CN (stereo not drawn)	0.15	-0.48
CC(OC(=O)Cc1ccsc1)C(=O)Nc1ccc(Cl)cn1 (stereo not drawn)	-1.5	/
CS(=O)(=NS(=O)(=O)c1ccc(OC(F)(F)F)cc1)c1ccccc1 (stereo not drawn)	-0.45	0.02
CCOc1ccc(OCCSc2nc(C)cc(=O)[nH]2)cc1	-0.35	-0.39
O=C(CCSc1ccccc1)NCc1ccco1	-0.75	0.07
COc1ccc(-c2cc(C(=O)NCc3cccc(OC)c3)c3ccccc3n2)cc1	0.05	0.025
CCc1sc(NC(=O)CN2CCCC2)nc1-c1ccccc1	-1	0.17
c1csc(-c2cn3nc4c(nc3n2)CCCC4)c1	/	0.18
